UCH37 DUB inh = human UCH37 deubiquitinating enzyme inhibition; Q9Y5K5; purified proteasome/UCH37, Ub-AMC cleavage fluorescence; inhibition, % (test concentration not listed); hit rate 0.33% among 330,000;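 active = mean of two replicates above 20%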;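 note: 0% = compound-free wells with enzyme and 100% = wells lacking proteasome; stock transfer was 100 nL into about 20 µL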
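Material: human UCH37 enzyme supplied as purified proteasome complex / Amount: 0.15 nM proteasome as dispensed / Buffer or medium: pH 7.4 Tris-HCl (50 mM) with ovalbumin, ATP-MgCl2, DTT / Times: preincubation 30 min, reaction 25 min, room temperature / Technique: AMC fluorescence from Ub-AMC cleavage, excitation 355 nm, emission 460 nm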
Beta2AR agonist = activates human beta-2 adrenergic receptor causing internalization | P07550 | Am2.2-beta2AR cells, FAP receptor internalization, flow cytometry; reference of the scale not given here | hit rate 0.43% among 340,000 | response, % (no concentration beside the values);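 active = response above a set limit, near 3 SD of response in nonfluorescent compounds, cut at about 42% in these data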;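 note: stock transfer was 100 nL into about 11 µL; a reference agonist was the positive control; negative values mostly stem from fluorescent compounds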
Target sequence (P07550 whole entry, looked up): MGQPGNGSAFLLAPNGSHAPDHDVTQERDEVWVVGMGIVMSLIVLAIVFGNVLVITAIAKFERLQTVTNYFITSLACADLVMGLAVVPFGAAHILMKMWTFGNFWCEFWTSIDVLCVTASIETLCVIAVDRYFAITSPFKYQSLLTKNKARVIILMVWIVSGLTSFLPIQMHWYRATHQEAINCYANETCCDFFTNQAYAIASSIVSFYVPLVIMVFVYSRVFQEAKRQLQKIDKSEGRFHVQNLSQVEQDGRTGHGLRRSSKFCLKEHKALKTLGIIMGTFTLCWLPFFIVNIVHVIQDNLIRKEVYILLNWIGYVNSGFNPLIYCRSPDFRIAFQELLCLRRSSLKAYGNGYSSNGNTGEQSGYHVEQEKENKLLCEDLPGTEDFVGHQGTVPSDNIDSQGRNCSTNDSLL
HNF4A DNA FP = change in binding of human HNF4 alpha to DNA; P41235; HNF4a-FITC DNA binding, fluorescence polarization, 1 h; activity change, % at 10 µM; hit rate 0.3% among 360,000; AID 1224865; in the data active = activity change above about 30%, passing the limit was not always enough;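 note: controls were the assay level and a saturating level of protein; the project sought stronger binding though the title names inhibitors; some compounds called inactive have numbers as strong as hits; positive values seem to mean higher polarization but the record does not say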
Target sequence (P41235 whole entry, looked up): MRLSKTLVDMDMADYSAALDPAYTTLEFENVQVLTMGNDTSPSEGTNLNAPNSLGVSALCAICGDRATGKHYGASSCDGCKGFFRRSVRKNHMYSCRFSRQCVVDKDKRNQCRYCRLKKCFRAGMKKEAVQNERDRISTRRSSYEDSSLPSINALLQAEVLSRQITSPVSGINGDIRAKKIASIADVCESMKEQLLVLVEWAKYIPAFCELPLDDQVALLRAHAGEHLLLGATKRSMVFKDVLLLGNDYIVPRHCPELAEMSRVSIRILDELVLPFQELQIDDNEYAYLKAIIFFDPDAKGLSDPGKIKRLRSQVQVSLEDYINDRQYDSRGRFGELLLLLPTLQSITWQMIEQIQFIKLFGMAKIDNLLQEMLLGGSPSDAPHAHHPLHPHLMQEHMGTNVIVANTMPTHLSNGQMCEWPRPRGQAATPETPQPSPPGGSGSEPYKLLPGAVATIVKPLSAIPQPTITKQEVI
Bfl-1 A1 inh = inhibitors of the anti-apoptotic protein A1, read as caspase activation; caspase activation, % (no concentration beside the values); hit rate 0.066% among 330,000; MEF A1-2A-BIM cells, Caspase-Glo 3/7 luminescence, 3 h; percent of clofoctol response, vehicle zero;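 active = over half of replicate activation scores above 10%, or exactly half above 10 with the replicate mean above 10; inconclusive = replicate mean below 10 yet half the replicates above 10; inactive = over half of replicates below 10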;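 note: wells of about 30 µL received 50 nL stock; many hits fall short of the cut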
Ecoli growth = E. coli growth inhibition; hit rate 0.21% among 330,000; AID 1053175; OD600 absorbance (no concentration beside the values); Escherichia coli growth, OD600, 23 h; stronger effect = lower value;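 active = OD600 absorbance below the run mean of sample wells minus 3.6 SD, in any replicate, cut at about 0.56 in these data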;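 note: stock transfer was 300 nL into about 60 µL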
Vif TR-FRET = inhibitors of Vif binding to APOBEC3G peptide, primary screen, biochemical, TR-FRET, GST-Vif 1-94, biotin-A3G peptide, dose response retest (AID 1117319) | TR-FRET GST-Vif / biotin-A3G peptide binding; higher % means a stronger effect; test concentration not given here; strong numbers were not always called active | inhibition, %, or IC50 in µM where a hit was titrated | hit rate 0.57% among 260,000;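 active = above the screen mean plus three standard deviations and confirmed in dose response; inconclusive = results disagree or hit not tested in dose response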;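 note: Vif residues 1-94 fused to GST binding biotinylated APOBEC3G peptide 110-148; 0% = full assay without inhibitor and 100% = GST in place of GST-Vif; retest series ran down from 100 µM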
LANA-H2A inh = blocks KSHV LANA binding to histone H2A/H2B; cell-free LANA-H2A/H2B peptide, fluorescence polarization; hit rate 0.6% among 320,000; inhibition, % (test concentration not listed); in the data active = inhibition mostly above about 10%, no sharp cut-off; inactive = mostly below about 6.7%;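 note: stock transfer was 7.5 nL into about 10 µL; 0% = median of vehicle wells and 100% = median of positive control wells; one replicate is shown; the record names a cut of 25% in any replicate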
* hit, by the source's call; i = inactive; ? = inconclusive; nt = no result given.

molecule,UCH37 DUB inh,Beta2AR agonist,HNF4A DNA FP,Bfl-1 A1 inh,Ecoli growth,Vif TR-FRET,LANA-H2A inh
CC1CN(C(=O)CCC(=O)N2CCC3(CC2)OCCO3)c2cc(Cl)ccc2O1 (centres undefined),0.9,3,2.4,-0.3,0.65,nt,2.1
Cc1cc(Oc2cc(NN3CCCCC3)c([N+](=O)[O-])cc2[N+](=O)[O-])ccc1[N+](=O)[O-],nt,5,5.0,-0.3,nt,nt,2.9
Clc1ccc(N2CCNCC2)nn1,-3.7,-8,0.0,0.0,0.69,-5%,0.1
CC(=NCCCn1ccnc1)c1c(O)n(-c2ccccc2)c(=O)[nH]c1=O,4.0,0,-4.8,0.4,0.7,10%,3.0
COc1ccc(-c2nc(CS(=O)CC(=O)N3CCC4(CC3)OCCO4)c(C)o2)cc1 (centres undefined),2.6,-3,1.3,-0.1,0.7,?,1.7
CCC(=Nc1ccc(OC)cc1OC)c1c(O)[nH]c(=O)[nH]c1=O,5.1,-7,0.3,-0.7,0.75,7%,2.1
NNC(=O)c1ccc(Cl)cc1,-1.1,-3,3.8,-0.8,0.71,nt,10
Cc1ccc(N2C(=O)NC(=O)C(CCc3ccccn3)(Cc3ccc(F)cc3)C2=O)cc1 (centres undefined),4.1,-10,-1.9,0.0,0.7,nt,1.8
CC(=O)c1ccc2c(c1)OCO2,-1.8,-10,3.5,0.2,0.73,3%,1.7
COC(=O)C1=C(c2cccc(OC)c2OC)C[C@@H]2CC[C@H]1N2C(=O)NCCS(C)=O (some centres undefined),5.0,-3,-2.7,0.5,0.81,nt,-1.6
CN1CCN(Cc2nc3ccccc3c(=O)[nH]2)CC1,2.9,8,0.0,0.6,0.68,?,-7.2
Cc1cc(C)cc(N2C(=O)NC(=O)/C(=C/c3cccn3-c3ccc(Cl)cc3)C2=O)c1,2.3,7,-3.7,0.0,0.68,nt,-0.1
c1ccc(C2(N3CCCCC3)CCCCC2)cc1,3.9,0,0.4,nt,0.76,nt,nt
O=C(Cc1ccccc1)N1CCN(Cc2ccccc2Cl)CC1,-1.9,-2,0.0,-0.2,0.67,-5%,1.6
C=CCN=C(SCC(=O)c1ccc(Cl)cc1)c1c(O)n(C)c(=O)n(C)c1=O,9.7,-10,2.6,1.4,0.63,23%,2.2
C1=C(CCNCc2ccccc2)CCCC1,0.1,3,2.4,0.2,0.45*,-4%,3.8
CCN(CC)c1ccc(C(=C2C=CC(=[N+](CC)CC)C=C2)c2ccccc2)cc1,nt,59*,0.0,nt,nt,12µM*,nt
ClC1=C(Cl)C2(Cl)C3C(Cl)C=CC3C1(Cl)C2(Cl)Cl (centres undefined),nt,0,-1.3,0.1,nt,nt,11
O=C1CC(C(=O)N2CCC3(CC2)OCCO3)CN1CCc1ccccc1 (centres undefined),0.8,-1,-0.8,0.7,0.71,1%,3.4
Nc1ccc(Cc2ccc(N)cc2)cc1,0.4,-5,-0.7,nt,0.68,2%,nt
Cc1cc(C)n2nc(C)[n+](C)c2n1,3.1,-6,-0.2,-0.3,0.77,-4%,3.7
Clc1ccc2c(c1)C(OC1CN3CCC1CC3)c1ccccc1CS2 (centres undefined),2.9,23,0.0,0.4,0.62,-7%,-2.1
CCCCCn1c(=O)c(C(=O)Nc2ccccc2S(N)(=O)=O)c(O)c2ccccc21,-2.8,7,-2.1,-0.2,0.73,nt,0.6
COc1ccc(-n2c(O)c(C(C)=Nc3ccc4c(c3)CCC4)c(=O)[nH]c2=O)cc1,-3.7,3,2.3,-0.9,0.67,-4%,-2.4
CCN(CC)C(=O)c1ccc(NC(=O)c2cn(-c3ccccc3)nc2-c2ccc(OC)cc2)cc1,3.8,-3,5.7,0.7,0.73,nt,2.7
CCOC(=O)C1=CC(=C2C(=O)N(CC)C(=S)N(CC)C2=O)c2ccccc2O1,3.3,nt,nt,-0.7,0.69,6%,-3.2
CN1CCN(c2ccc([N+](=O)[O-])c(N3CCCCC3)c2)CC1,9.7,0,1.7,0.3,0.69,nt,2.1
c1cncc(CNC2CCCCC2)c1,3.9,1,4.1,0.4,0.68,-4%,-0.1
C[C@H]1CC[C@H]2NCCN[C@H]2C1,2.1,-5,-13,0.3,0.64,nt,0.7
NCC(CC(=O)O)C1CCCCC1 (centres undefined),0.9,2,2.1,0.4,0.72,11%,-0.8
C#CCN1CCN(c2ccc(F)cc2)CC1,-140,-2,-1.7,-0.1,0.7,-1%,i
OC1(c2ccccc2)CCNC2CCCCC21 (centres undefined),nt,2,-6.3,-0.2,nt,5%,1.4
COC(=O)C1=CO[C@H](C)[C@H]2CN3CC[C@@]4(C(=O)Nc5ccccc54)[C@@H]3C[C@H]12,1.4,-2,-3.6,0.5,0.76,nt,-1.7
C=C(CO)CC1CC(O)[C@]2(C)OC3CC4OC5C[C@]6(C)O[C@]7(C)CCC8OC9C[C@]%10(C)OC%11C(C)=CC(=O)OC%11CC%10OC9C[C@@H](C)C8OC7CC6O[C@]5(C)C/C=C\C4OC3CC2O1 (some centres undefined),2.3,0,6.5,0.1,nt,-7%,-4.4
Cc1cccc(CCNCc2cc3cccc(C)c3[nH]c2=O)c1,-1.3,0,-3.1,2.1,0.67,nt,1.1
CC12CCC3C(CCC4C/C(=N/O)CCC43C)C1CCC2O (centres undefined),nt,4,-2.9,1.1,nt,nt,-5.0
CCOC(=O)C1=C(N)OC2=C(C(=O)CCC2)C12C(=O)N1c3c(ccc(C)c32)C(C)=CC1(C)C (centres undefined),1.7,1,-0.2,0.9,0.73,18%,-0.9
CN(C)c1ccc(P(=S)(N(C)C)N(C)C)cc1,2.1,-3,-0.7,-0.6,0.7,-3%,-9.0
O=C(N/N=C/c1c(O)n(C2CC2)c(=S)[nH]c1=O)c1ccccc1O,-5.5,-13,1.9,-8.0,0.68,?,3.2
CCOC(=O)c1[nH]c(C)c(C(=O)N2CCC3(CC2)OCCO3)c1C,1.7,2,2.7,1.5,0.75,6%,-2.2
C=CP(=O)(O)c1ccccc1,1.1,-6,1.3,0.7,0.77,10%,1.3
CN1CCC2(CC1)CC(NC=O)c1ccccc1O2 (centres undefined),4.2,6,-0.8,0.0,0.66,23%,1.6
CCN(CC)c1ccc(/C=C2\C(=O)NC(=O)N(CC3CCCO3)C2=O)cc1 (centres undefined),2.0,8,6.1,0.0,0.71,16%,-1.9
CCCCCCN=C(C)c1c(O)n(CCCC)c(=O)[nH]c1=O,3.8,-8,0.2,-0.5,0.72,7%,5.2
CC(=O)[C@@]1(O)CC[C@H]2[C@@H]3CC=C4C[C@@H](O)CC[C@]4(C)[C@H]3CC[C@@]21C,6.3,-5,2.0,-0.4,nt,32%,3.5
c1ccc(C2OCCN3CCCCC23)cc1 (centres undefined),-2.1,2,2.9,0.1,0.69,-5%,3.3
COc1cc2c(cc1O)[C@@H]1Cc3ccc(OC)c(O)c3CN1CC2,1.8,-5,-1.4,-0.3,nt,nt,5.7
COc1ccc2c(c1O)[C@]13CCN(C)[C@H](C2)[C@@H]1CCC(=O)C3,1.3,-1,7.1,0.6,0.69,nt,0.5
Cc1cccn2c(=O)c3c(nc12)N1CCC(Cc2ccccc2)CC1C1(C3)C(=O)N(C)C(=O)N(C)C1=O (centres undefined),-5.9,-4,-1.3,0.3,0.78,1%,-1.1
Cc1cc(C(=O)NP(=O)(N2CCOCC2)N2CCOCC2)c(C)n1C1CC1,2.0,-7,4.0,-0.2,0.71,-4%,-0.9
CN1C2CCC1CC(=NO)C2,0.9,-5,4.2,-1.0,0.66,-1%,-1.8
CCN(CC)CCOC(=O)c1ccc(N=Cc2c(O)[nH]c(=O)[nH]c2=O)cc1,8.9,-6,60*,0.0,0.73,28%,-9.2
CC1=C(C(=O)O)N2C(=O)C(NC(=O)Cc3ccccc3)C2SC1 (centres undefined),6.2,-3,3.5,-0.5,0.71,4%,-2.0
COc1ccccc1N1CCN(Cc2cccc(OC)c2O)CC1,nt,6,-1.7,0.8,nt,23%,1.1
Cc1c(C=O)c2ccccc2n1Cc1ccccc1,0.7,11,1.7,-0.1,0.62,nt,4.0
C[C@]12CCC(=O)C=C1CC[C@@H]1C2[C@H](O)C[C@]2(C)C(=O)CCC12 (some centres undefined),0.6,3,1.4,-0.5,0.69,3%,2.3
COc1ccc(OCC(=O)N2CCN(Cc3ccc(SC)cc3)CC2)cc1,3.7,4,2.0,0.4,0.7,-11%,4.3
CC1CCC(NCC(O)c2ccccc2)CC1 (centres undefined),2.7,1,0.6,0.2,0.69,-4%,0.6
Cc1ccc(-c2cc(-c3ccccc3)cc(-c3ccccc3)[n+]2-c2ccccc2)cc1,2.3,32,3.7,-0.3,0.63,nt,4.4
C[C@H]1O[C@@H](OC2CC[C@]3(C=O)[C@H]4CC[C@]5(C)[C@@H](C6=CC(=O)OC6)CC[C@]5(O)[C@@H]4CC[C@]3(O)C2)CC2OC(C)(C)OC21 (some centres undefined),nt,-3,-2.2,-2.1,nt,4%,0.9

The list continues:
molecule,UCH37 DUB inh,Beta2AR agonist,HNF4A DNA FP,Bfl-1 A1 inh,Ecoli growth,Vif TR-FRET,LANA-H2A inh
COc1ccc(OC)c(CC(=O)N(C)C2CCCN(Cc3ccccc3F)C2)c1 (centres undefined),2.6,0,-0.4,0.1,0.68,nt,-3.4
CCC(CC)C(=O)NC1CCSC1=O (centres undefined),4.7,-2,0.8,1.0,0.69,?,0.9
COC(=O)C1=C(c2cccc(OCc3ccccc3)c2)C[C@@H]2CC[C@H]1N2C(=O)NCc1ccc(OC)c(OC)c1,-0.7,-4,1.1,1.4,0.8,nt,-8.8
O=C(CCNC(=O)N1C[C@H]2C[C@@H](C1)c1cccc(=O)n1C2)Nc1ccc(F)cc1,-1.4,5,3.1,1.0,0.72,nt,1.4
O=c1[nH]c2ccccc2c(=O)n1-c1cccc(Cl)c1,0.0,-9,1.5,-0.8,0.64,30%,-0.8

High-throughput results deposited in PubChem BioAssay by several laboratories.

A portion of the library; count on the stated rates, not on these rows.
